High-throughput results deposited in PubChem BioAssay by several laboratories.
VCAM-1 up: enhancers of VCAM-1 display on endothelial cells, cell-based, plate reader, pooled HUVEC, TNFa stimulus (AID 455); augmentation, % at 5 µM; HUVEC TNFa-induced VCAM-1 immunofluorescence, plate reader; numbers were filed only for top-ranked candidate wells; 0.2% of 10,000 active;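 active = a compound raising TNF-alpha-driven VCAM-1 surface staining, with its hit status upheld on visual or statistical review; inactive = the rest, including hits rejected on review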;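 also: 0% = TNFa with vehicle and 100% = strongest image-checked hit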
26S disassembly: blocks ATP-dependent breakdown of the yeast 26S proteasome | anti-FLAG beads, GFP-proteasome disassembly, flow cytometry | inhibition of disassembly, % (concentration not given with the values) | 0.2% of 24,000 active;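 active = above 40%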;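 also: plate controls were ATP control with full disassembly for no effect and ATP-gamma-S intact proteasomes for full effect; higher percent means more bead fluorescence retained so stronger block of disassembly; stock transfer was 100 nL into about 10 µL; wells with too few beads may also be inconclusive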
* marks the source's active call; other numbers are inactive results; i = inactive; . = no result given.

Start of the data: the first 5 records, ahead of the listing:
VCAM-1 up,26S disassembly,mol
.,2.8,Cc1nc2ccc(S(=O)(=O)NCC(=O)N3CCN(c4ccccc4)CC3)cc2s1
.,-0.4,O=C(CCNS(=O)(=O)c1cccc2nsnc12)N1CC(=O)N(CCc2ccccc2)C(=O)C1
.,0.4,Cc1cc(C)c2nc(N3CCC(C(=O)N4CCN(c5ncccn5)CC4)CC3)sc2c1
.,-0.1,O=C(c1cc2c(=O)oc3ccccc3c2s1)N1CCN(c2ccccn2)CC1
.,0.3,COC(=O)c1[nH]nc2c1C(=O)N(Cc1ccccc1)C2=O

The list itself, from the first entry:
VCAM-1 up,26S disassembly,mol
.,2.8,Cc1nc2ccc(S(=O)(=O)NCC(=O)N3CCN(c4ccccc4)CC3)cc2s1
.,-0.4,O=C(CCNS(=O)(=O)c1cccc2nsnc12)N1CC(=O)N(CCc2ccccc2)C(=O)C1
.,0.4,Cc1cc(C)c2nc(N3CCC(C(=O)N4CCN(c5ncccn5)CC4)CC3)sc2c1
.,-0.1,O=C(c1cc2c(=O)oc3ccccc3c2s1)N1CCN(c2ccccn2)CC1
.,0.3,COC(=O)c1[nH]nc2c1C(=O)N(Cc1ccccc1)C2=O
i,-0.6,CC(C)=CC/C=C1\CCC(C(=O)O)C(C(=O)O)C1 (stereo unspecified)
.,-0.3,CC(C)C(=O)Nc1nc2c(ncn2C2CC(O)C(CO)O2)c(=O)[nH]1 (stereo unspecified)
.,-1.2,Cn1c(=O)oc2cc(S(=O)(=O)N3CCC(N4CCCCC4)CC3)ccc21
.,-1.3,O=C(CCCNS(=O)(=O)c1cccs1)N1CCN(c2ccc(F)cc2)CC1
i,-0.3,COc1cccc(C2C(C(=O)c3ccc(C)o3)=C(O)C(=O)N2CCCN(C)C)c1 (stereo unspecified)

VCAM-1 up,26S disassembly,mol
.,0.8,CCOC(=O)C1CCCN(c2c(NCCCN(C)c3ccccc3)c(=O)c2=O)C1 (stereo unspecified)
i,3.1,Cc1cc2ccccc2n1CCNC(=O)c1ccc(S(=O)(=O)N2CCOCC2)cc1
i,-0.3,Cc1csc(NC(=O)c2cccc(S(=O)(=O)N3CCCCC3)c2)n1
i,0.7,CCOC(=O)Cn1nnnc1C(C(C)C)N(Cc1cc2c(C)cc(C)cc2[nH]c1=O)C1CCCC1 (stereo unspecified)
.,-2.7,C=CCn1cc(C(=O)OC)c(=O)c2cc(S(=O)(=O)N3CCC(C)CC3)ccc21
i,7.8,CC(C)(C)C1CCc2c(sc3c2C(=O)NC(c2ccco2)N3)C1 (stereo unspecified)
.,1.3,CC(NC(=O)c1ccco1)C(c1cccs1)N1CCN(c2ccccc2F)CC1 (stereo unspecified)
i,0.7,Cc1cccc(NC(=O)c2cc3ccccc3o2)c1
i,-0.6,Cc1oc(C(=O)O)cc1CSCc1cc(C(=O)O)c(C)o1
i,-2.4,CC(C)(C)NS(=O)(=O)c1ccc(CCC(=O)O)cc1

VCAM-1 up,26S disassembly,mol
i,-0.1,Nc1cc(C(=O)O)ccc1Nc1ccc(F)c(F)c1
i,0.0,COc1cc(OC)c(NC(=O)c2ccco2)cc1Cl
i,0.3,CCN1CCN(C(=O)c2cn(CCOC)c(=O)c3c2c2ccccc2n3C)CC1
i,-0.2,CCOC(=O)c1ccc(-n2c(C)nc3c(cnn3-c3ccccc3C)c2=O)cc1
.,0.0,Cc1ccc(C)c(Cn2c(=O)n(CCC(=O)NCc3ccco3)c(=O)c3ccccc32)c1
i,-0.1,O=C(c1ccc(Cl)c(Cl)c1)N1CCOCC1
i,3.2,Cc1ccc(-c2nc(-c3cccnc3)no2)c(C)c1
.,-1.1,COc1ccc(C2CC(c3ccccc3)Nc3ncnn32)cc1 (stereo unspecified)
.,14,CCOC(=O)C1CCN(S(=O)(=O)c2ccc(-c3nc4ccccc4s3)s2)CC1
.,-3.3,COc1ccc(-c2cc(C(=O)NCc3ccccc3)no2)cc1OC

VCAM-1 up,26S disassembly,mol
.,-0.2,Cc1sc(NC(=O)c2cccs2)nc1-c1ccccc1
i,0.2,O=C(NCC(=O)N(Cc1cccs1)C(C(=O)NC1CCCC1)c1ccncc1)c1ccco1 (stereo unspecified)
i,-1.6,CCOc1ccc(-c2nc(C#N)c(N3CCN(C)CC3)o2)cc1
i,-0.2,CCn1nnc(NC(=O)c2cc3ccccc3o2)n1
.,3.5,O=C(CCc1nc2ccccc2[nH]1)Nc1ccccc1
.,-1.3,COC(=O)c1cc(=O)n(C2CC2)c(=NC2CC2)s1
.,-2.0,CCCCNC(=O)c1ccc(CS(=O)(=O)c2ccc(OC)cc2)o1
.,3.0,CCOC(=O)CSC1=Nc2ccccc2C2=NC(CC(=O)NCc3ccccc3)C(=O)N12 (stereo unspecified)
i,0.7,COc1ccc(-c2nc(CS(=O)CC(=O)N3CCCC3)c(C)o2)cc1 (stereo unspecified)
i,0.2,O=C(NCc1ccccc1)c1ccc(OC2CSC2)cc1

VCAM-1 up,26S disassembly,mol
i,2.5,CCc1cc2c(=O)c(-c3ccc4c(c3)OCCO4)coc2cc1OC(=O)c1ccco1
i,-3.1,Cc1csc(SCCn2c(N3CCCC3)nc3c2c(=O)[nH]c(=O)n3C)n1
i,0.3,CCOc1ccccc1-n1c(SCC(=O)NC(C)CC)nnc1-c1ccoc1C (stereo unspecified)
i,0.4,O=C(Nc1ccc(NC(=O)C2CC2)cn1)c1ccccc1Cl
i,-1.0,CN(CC(=O)Nc1nccs1)S(=O)(=O)c1ccc(F)cc1
i,-0.5,O=C(NCc1cccs1)c1cc2c(s1)-c1ccccc1OC2
i,7.8,Cc1ccc(Nc2nc(CSc3nnnn3C)cs2)cc1
i,3.3,COc1ccc(NC(=O)CCc2nc(-c3ccccc3F)no2)cc1
.,0.7,CCN(CC)C(=O)CSc1ncnc2c1nnn2-c1ccc(F)cc1
i,0.5,Cc1cc(C)cc(NS(=O)(=O)c2ccc3[nH]cc(C(=O)NCc4ccco4)c(=O)c3c2)c1

VCAM-1 up,26S disassembly,mol
.,0.4,CCS(=O)(=O)Nc1ccc(C(=O)CC2(O)C(=O)Nc3ccc(Br)cc32)cc1 (stereo unspecified)
.,-0.1,CCOC(=O)c1cccnc1SCC(=O)N(C)c1ccccc1
.,-0.2,Cc1ccc(-n2c(Cc3cccn3C)nnc2SCC(N)=O)cc1
.,4.6,COc1ccc(CC(=O)Nc2ccc(N3CCN(c4ccc(OC)cc4)CC3)c(C#N)c2)cc1
i,-1.5,COc1ccc(CCn2c(C)cc(C(=O)CSc3nnnn3C)c2C)cc1
.,-1.5,CC(C)Oc1ccc(C(=O)N(CN2CCCC2=O)c2ccc(F)cc2)cc1
.,-1.7,CC(=O)N1CCc2cc(S(=O)(=O)N3CCOCC3)ccc21
.,-0.1,CN1CCN(CCNC(=O)Nc2ccccc2C(F)(F)F)CC1
.,-0.8,CCCN(CCC)CCCNC(=O)CS(=O)Cc1nc(-c2ccc(OC)c(OC)c2)oc1C (stereo unspecified)
i,0.1,CCOC(=O)CN1C(=O)C2(OCCCO2)c2ccccc21

VCAM-1 up,26S disassembly,mol
.,0.4,CC(=O)N1c2c(cc(Br)cc2S(=O)(=O)N2CCOCC2)CC1C (stereo unspecified)
.,-1.3,CSC1=NCCN1C(=O)Cc1ccc(F)cc1
.,-0.8,CC(=O)Nc1ccc(S(=O)(=O)NCCc2csc(C)n2)cc1
.,0.7,COc1ccc(-c2nc(CS(=O)CC(=O)NC3CCCc4ccccc43)c(C)o2)cc1OC (stereo unspecified)
i,0.5,CC[N+](C)(C)c1cccc(O)c1
i,0.9,C/C(=N\O)c1ccc2c3c([nH]c2c1)CCCC3
.,-0.7,COc1ccc(N2C(=O)C3CCCN3C2c2ccc(Cl)cc2)cc1 (stereo unspecified)
.,-0.9,O=C(NC1CCCCCC1)C1C2C=CC3(CN(Cc4cccnc4)C(=O)C13)O2 (stereo unspecified)
.,0.6,COc1cc2c(cc1OC)C(c1ccccc1)N(C(=O)c1ccco1)CC2 (stereo unspecified)
.,0.0,CCOC(=O)C1CCN(C(=O)c2sc3nc(-c4ccccc4)cn3c2C)CC1

VCAM-1 up,26S disassembly,mol
.,-2.6,COc1ccc(CCNC(=O)CSc2nnc(CNC(=O)c3ccco3)o2)cc1OC
i,-1.0,CN1C(=O)C(O)(CC(=O)c2ccc3c(c2)OCO3)c2ccccc21 (stereo unspecified)
.,-0.1,COc1ccc(C)cc1NC(=O)C1CCCN1C(=O)OCc1ccccc1 (stereo unspecified)
.,0.3,Cn1c(=O)cc(SCC(=O)NCCCN2CCN(c3ccccc3F)CC2)c2ccccc21
i,-0.1,O=C(OC1CCOC1=O)c1ccc(S(=O)(=O)N2CCCCCC2)cc1 (stereo unspecified)
i,8.7,CCOC(=O)c1cccc(NC(=O)CNS(=O)(=O)c2cccs2)c1
.,-1.9,Cc1ccc(C)c(N(C)S(=O)(=O)c2cccc3nsnc23)c1
.,1.4,CN(CC(=O)NCc1ccco1)S(=O)(=O)c1cccc2cccnc12
.,2.2,Cn1c(=O)oc2cc(S(=O)(=O)NCCC(=O)N3CCc4ccccc43)ccc21
i,1.0,Cc1cc(NC(=O)CN2CCC(O)(c3cccc(F)c3)CC2)no1

Quoted at random: six records from the list
VCAM-1 up,26S disassembly,mol
i,1.0,Cc1cc(NC(=O)CN2CCC(O)(c3cccc(F)c3)CC2)no1
.,1.4,CN(CC(=O)NCc1ccco1)S(=O)(=O)c1cccc2cccnc12
i,-0.1,O=C(OC1CCOC1=O)c1ccc(S(=O)(=O)N2CCCCCC2)cc1 (stereo unspecified)
.,2.2,Cn1c(=O)oc2cc(S(=O)(=O)NCCC(=O)N3CCc4ccccc43)ccc21
.,0.3,Cn1c(=O)cc(SCC(=O)NCCCN2CCN(c3ccccc3F)CC2)c2ccccc21
i,8.7,CCOC(=O)c1cccc(NC(=O)CNS(=O)(=O)c2cccs2)c1

Continued:
VCAM-1 up,26S disassembly,mol
.,-1.9,O=C(CCN1C(=O)C2CC=CCC2C1=O)N1CCN(c2ccccn2)CC1 (stereo unspecified)
i,8.4,CCn1c(SCC(=O)c2ccc(C)cc2)nnc1-c1ccoc1C
i,0.2,O=C1C/C(=C/NCc2ccccc2)C(=O)N1
.,-0.8,COc1ccc(N2CCN(S(=O)(=O)c3cccc4cccnc34)CC2)cc1
.,0.1,Cc1cccc2sc(NC(=O)CN(C)S(=O)(=O)c3ccc(Br)s3)nc12
.,-1.0,Cc1cc2oc(=O)cc(C)c2cc1NC(=O)CCC(=O)O
i,-0.6,COc1ccc(CN(C)CC(=O)c2c(N)n(Cc3ccccc3)c(=O)n(C)c2=O)c(OC)c1
i,0.1,O=C(NCc1ccco1)C1Cc2ccccc2CN1S(=O)(=O)c1ccccc1F (stereo unspecified)
.,0.7,O=C(O)C1CCCCC1C(=O)N1CC=C(c2ccccc2)CC1 (stereo unspecified)
.,-0.7,O=C(O)C1C2C=CC3(CN(Cc4ccco4)C(=O)C13)O2 (stereo unspecified)

VCAM-1 up,26S disassembly,mol
.,1.7,COC(=O)CN1C(=O)C(O)(CC(=O)c2ccc(Br)cc2)c2ccccc21 (stereo unspecified)
.,1.0,Cc1nc(CSc2nnc(C)s2)cs1
i,-1.5,Cn1cnc(S(=O)(=O)NCc2cccs2)c1
i,0.2,CC1CCN(C(=O)CSCC(=O)Nc2nc(-c3cccs3)cs2)CC1
.,-1.1,CCOC(=O)c1cc2c(=O)n3ccccc3nc2n(C(C)C)c1=NC(=O)c1ccncc1
.,-0.3,Cc1ccc(-c2noc(CCC(=O)Nc3ccc(C)cn3)n2)cc1
.,0.0,Cc1ccc(S(=O)(=O)Nc2cc(C(=O)NCCN(C)C)ccc2N2CCCCC2)cc1
.,0.3,COCCN1Cc2cccc(C(=O)Nc3cccc(OC)c3)c2C1=O
.,-0.4,CCN(CCCNC(=O)CCc1nc(-c2ccc(OC)cc2)no1)c1cccc(C)c1
.,0.1,COc1ccc(N(CC(=O)Nc2cccc(OC)c2)S(=O)(=O)c2c(C)nn(C)c2C)cc1

VCAM-1 up,26S disassembly,mol
.,0.1,COC(=O)CCC(NC(=O)OCc1ccccc1)C(=O)NC(CC(C)C)C(=O)OC (stereo unspecified)
.,-0.6,CC[N+](CC)(CCO)CCCN1C(=O)C2CC=C(Cl)CC2C1=O (stereo unspecified)
i,-0.6,CCCCNC(=O)c1cc(-c2ccc(F)cc2)on1
i,-0.7,Cc1nc2ccc(S(=O)(=O)NCC(=O)N3CCc4ccccc4C3)cc2s1
.,-2.6,CCCCNC(=O)c1cn(C)c2ccc(S(=O)(=O)N3CCOCC3)cc2c1=O
.,2.8,CCCN(CCC)CCNC(=O)C1CCN(Cc2nc(-c3ccc(Cl)cc3)oc2C)CC1
.,0.2,CCc1ccc(S(=O)(=O)NCc2cn3ccsc3n2)s1
.,0.3,COCC(=O)NC(C)c1nc2ccccc2[nH]1 (stereo unspecified)
i,1.6,O=c1[nH]c(=O)n(C2CCCCCC2)c(O)c1C=NCc1ccc(F)cc1
100,3.9,COC(=O)c1ccc(-c2sc3nc(N4CCOCC4)c4c(c3c2N)CCCC4)o1

VCAM-1 up,26S disassembly,mol
.,0.4,Cc1c(C(=O)OCc2ccccc2)nnn1-c1nonc1N
.,0.1,CC(C)OCCCNC(=O)Cn1nc(-c2ccccc2)ccc1=O
.,-1.5,Cc1cc(C(F)(F)F)nn1CC(=O)Nc1cccnc1
.,3.2,CCOc1ccc(NS(=O)(=O)c2ccc3[nH]c(=O)oc3c2)cc1
i,-0.2,CC(=O)c1ccc(NC(=O)CCc2c(C)nc3ncnn3c2C)cc1
i,-0.1,O=C(CCNS(=O)(=O)c1cccc2nsnc12)Nc1ccc2c(c1)OCCO2
.,0.2,Cc1ccc(N=c2oc3cc(O)ccc3cc2C(N)=O)cc1
i,-1.3,O=C(Nc1ccc(S(=O)(=O)Nc2ccc(Cl)cc2)cc1)C1CCCO1 (stereo unspecified)
i,0.7,CCc1cc2ccc(C)cc2nc1SCC(=O)N1CCN(C(=O)c2ccco2)CC1
i,0.8,COc1ccc(-c2coc3cc(O)cc(O)c3c2=O)cc1

Only part of the results is shown (hit frequency here may not be typical).
